BJeLR viability = BJeLR cell viability loss | 300,000 compounds, 0.17% hits | BJeLR (HRASV12) viability, CellTiter-Glo ATP luminescence, 48 h; reference of the scale not given here | AID 1554 | inhibition, % (test concentration not listed);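 active = replicate mean above 50%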;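 also: 50 nL library stock added to about 25 µL; numbers are from one replicate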
PrP 5UTR inh = inhibition of PrP 5' UTR reporter expression | cell-based PrP 5' UTR mRNA reporter, plate reader | inhibition, % (concentration not given with the values) | 340,000 compounds, 0.35% hits;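 active = every replicate at 50% or more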;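 also: 0 = median of the neutral control wells; tested in H4 reporter cells; numbers are from one replicate; inactives centre near -14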
Sa ugtP lethal = compounds lethal to S. aureus RN4220 ugtP deletion mutant; OD600 growth, 16 h; some inactives read as strong as hits; growth inhibition, % (concentration not given with the values); 330,000 compounds, 0.54% hits; AID 1259309;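 active = z-score under -3 and OD600 up to 0.15 on both plates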;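 also: plate controls were untreated wells for no effect and antibiotic for full effect; wells of about 80 µL received 100 nL stock; the first replicate is given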
Mtb hypoxia inh = reduces hypoxia-regulated biosensor signal in M. tuberculosis | 300,000 compounds, 0.1% hits | fluorescence inhibition, % (no concentration beside the values) | M. tuberculosis hypoxia-regulated fluorescent reporter, fluorescence;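 active = 35 to 45% if threefold the growth effect, above 45% if 1.5-fold the growth effect; inactive = the rest, general growth blockers included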;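 also: wells of about 50 µL received 100 nL stock; 0% = vehicle wells and 100% = reference inhibitor wells; whole bacteria with a GFP reporter of the hypoxia response; strong numbers were not always called active; many hits fall short of the cut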
Bead autofluor = counter-screen for toxin protease inhibitors: compound fluorescence. compound autofluorescence counterscreen, microsphere flow cytometry; active compounds read high. 360,000 compounds, 3.1% hits. fluorescence intensity (no concentration beside the values);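 active = at least 3 SD above the mean of all compounds, about 16000 in these data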;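 also: 100 nL of 1 mM stock went into each well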
Sa RN4220 lethal = S. aureus RN4220 growth inhibition; OD600, 16 h; inhibition, % (test concentration not listed); 330,000 compounds, 0.33% hits;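 active = z-score of -3 or lower and OD600 up to 0.18 on both plates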;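 also: plate controls were untreated cells for no effect and reference antibiotic for full effect; stock transfer was 100 nL into about 80 µL; one replicate is shown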
Mtb hypoxia inh growth = also measured in Mtb hypoxia inh; calls as there; growth inhibition, %; measured here: M. tuberculosis growth (absorbance);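 0% = vehicle and 100% = reference antibiotic; read after six days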
* hit, by the source's call; & = joins results of further samples.

COc1cccc(C(=O)NCc2nnc(SCC(=O)Nc3nccs3)n2-c2ccccc2)c1 was read as BJeLR viability -1, PrP 5UTR inh -33, Sa ugtP lethal -7, Mtb hypoxia inh 5, Bead autofluor 6080, Sa RN4220 lethal -8.2 and Mtb hypoxia inh growth 15.
For COc1ccc(C(=O)COC(=O)Cc2c[nH]c3ccccc23)c(OC)c1 the results were BJeLR viability -10, PrP 5UTR inh 0, Sa ugtP lethal 2, Mtb hypoxia inh -3, Bead autofluor 5906, Sa RN4220 lethal 1.6 and Mtb hypoxia inh growth 8.
For C#CCN1CC(C)/C(=N/O)CC1C (centres undefined) the results were BJeLR viability 13, PrP 5UTR inh 3 and Bead autofluor 5247.
Screening Cc1nn(CC(=O)c2ccc(Br)s2)c(C)c1[N+](=O)[O-] returned BJeLR viability 14, PrP 5UTR inh -9, Sa ugtP lethal 2, Mtb hypoxia inh -8, Bead autofluor 4770, Sa RN4220 lethal 0.4 and Mtb hypoxia inh growth -5.
For COc1cc(C#Cc2c(-c3ccccc3OC)oc3ccccc23)cc(OC)c1 the results were PrP 5UTR inh -12, Sa ugtP lethal 6, Mtb hypoxia inh -1, Bead autofluor 3006, Sa RN4220 lethal -3.9 and Mtb hypoxia inh growth 0.
For Cc1cc(C)n(-c2ccc(C(=O)OCC(=O)Nc3cc(S(C)(=O)=O)ccc3Cl)cc2)n1 the results were PrP 5UTR inh -16, Sa ugtP lethal -1, Mtb hypoxia inh 22, Bead autofluor 3635, Sa RN4220 lethal 6.1 and Mtb hypoxia inh growth 5.
Screening O=C(COc1ccc([N+](=O)[O-])cc1Cl)N1CCc2ccccc21 returned PrP 5UTR inh 10, Sa ugtP lethal 3, Mtb hypoxia inh 8, Bead autofluor 8755, Sa RN4220 lethal 3.3 and Mtb hypoxia inh growth 6.
Screening COc1ccccc1CNC(=O)CCNS(=O)(=O)c1ccc2c(c1)oc(=O)n2C returned BJeLR viability 6, PrP 5UTR inh -31, Sa ugtP lethal 2, Mtb hypoxia inh 1, Bead autofluor 6531, Sa RN4220 lethal 1.2 and Mtb hypoxia inh growth 5.
For Cn1c(=O)c2c(ncn2CC(=O)OCC(=O)Nc2ccc(F)cc2F)n(C)c1=O the results were Sa ugtP lethal 10, Mtb hypoxia inh 5, Bead autofluor 4741, Sa RN4220 lethal 6.2 and Mtb hypoxia inh growth -3.
For COc1cc(NC(=O)Cc2ccc(S(=O)(=O)N3CCOCC3)s2)c(OC)cc1Cl the results were BJeLR viability 3, PrP 5UTR inh -19, Sa ugtP lethal 2, Mtb hypoxia inh -10, Sa RN4220 lethal -1.9 and Mtb hypoxia inh growth -10.
Screening O=C(C1=NN(c2ccccc2)C2C(=O)N(c3ccccc3)C(=O)C12)c1ccccc1 (centres undefined) returned BJeLR viability -17, PrP 5UTR inh -9, Sa ugtP lethal 4, Mtb hypoxia inh 12, Bead autofluor 2313, Sa RN4220 lethal 1.3 and Mtb hypoxia inh growth 9.
Screening CCOC(=O)C(=COC(=O)c1ccccc1)NC(=O)Cc1ccccc1 returned PrP 5UTR inh -9, Sa ugtP lethal 1, Mtb hypoxia inh 5, Bead autofluor 4053, Sa RN4220 lethal 2.1 and Mtb hypoxia inh growth 3.
C=CCNCCCCOc1ccc(Br)cc1C was read as BJeLR viability 8, PrP 5UTR inh -7 and Bead autofluor 2515.
For CCCOC(=O)CCCN1C(=O)/C(=C2\SC(=S)N(CCCC(=O)OCCC)C2=O)SC1=S the results were BJeLR viability 12, PrP 5UTR inh -14, Sa ugtP lethal 7, Mtb hypoxia inh 18, Bead autofluor 3940, Sa RN4220 lethal 5.6 and Mtb hypoxia inh growth 14.
O=C(O)/C=C/c1cnn(-c2ccccc2)c1 was read as BJeLR viability 5, PrP 5UTR inh -29, Sa ugtP lethal -3, Mtb hypoxia inh 4, Bead autofluor 3950, Sa RN4220 lethal 1.6 and Mtb hypoxia inh growth 2.
`Cc1cc(N/N=C/c2ccccc2Cl)nc(NCc2ccccc2)n1` gave BJeLR viability 6, PrP 5UTR inh -1 and Bead autofluor 2290.
CN1CCN(CCC(=O)NN=Cc2cc([N+](=O)[O-])ccc2OC(F)F)CC1 was read as Sa ugtP lethal -2, Mtb hypoxia inh -10, Sa RN4220 lethal -0.8 and Mtb hypoxia inh growth -1.
Screening O=C(CC(CC(=O)c1ccc(Cl)cc1)c1ccccc1C(=O)O)c1ccc(Cl)cc1 returned BJeLR viability -3, PrP 5UTR inh 0, Sa ugtP lethal 48, Mtb hypoxia inh 8, Bead autofluor 2826, Sa RN4220 lethal 13 and Mtb hypoxia inh growth 3.
Cc1ccccc1NC(=O)c1cccc(OCc2c(C)noc2C)c1 was read as BJeLR viability 3, PrP 5UTR inh -8, Sa ugtP lethal 1, Bead autofluor 2687 and Sa RN4220 lethal -3.1.
Screening CCOc1c(Br)cc(CNc2ccc(N3CCN(C(C)=O)CC3)cc2)cc1OC returned BJeLR viability 5, PrP 5UTR inh -7, Sa ugtP lethal 6, Mtb hypoxia inh 7, Bead autofluor 4363, Sa RN4220 lethal 3.1 and Mtb hypoxia inh growth 8.
Screening CCOC(=O)CCc1c(C)c2ccc(OCc3nn[nH]n3)c(C)c2oc1=O returned BJeLR viability 6, PrP 5UTR inh 2, Sa ugtP lethal 17, Mtb hypoxia inh 14, Bead autofluor 3304, Sa RN4220 lethal 6.0 and Mtb hypoxia inh growth 17.
Screening O=C(NCc1ccco1)/C(=C/c1ccc(Br)cc1)NC(=O)c1ccco1 returned BJeLR viability -1, PrP 5UTR inh -9, Sa ugtP lethal 3, Mtb hypoxia inh 1, Bead autofluor 5681, Sa RN4220 lethal 2.3 and Mtb hypoxia inh growth 5.
Screening COc1ccc(C2C(C#N)=C(C)NC3=C2C(=O)CC(C)(C)C3)c(OC)c1 (centres undefined) returned BJeLR viability -3, PrP 5UTR inh -19, Sa ugtP lethal -4, Mtb hypoxia inh 13, Bead autofluor 3289, Sa RN4220 lethal -6.9 and Mtb hypoxia inh growth 14.
For COC(=O)CCC(C)=NNc1ccc([N+](=O)[O-])cc1[N+](=O)[O-] the results were Sa ugtP lethal 1, Mtb hypoxia inh 4, Sa RN4220 lethal 5.8 and Mtb hypoxia inh growth 7.
Cc1ccc(S(=O)(=O)NCC(=O)Nc2ccc3c(c2)OCO3)cc1 was read as BJeLR viability 0, PrP 5UTR inh -23, Sa ugtP lethal 3, Mtb hypoxia inh -2, Bead autofluor 3454, Sa RN4220 lethal 3.8 and Mtb hypoxia inh growth 9.
`CCC(Oc1ccccc1)C(=O)N1CCN(c2ccccn2)CC1` (centres undefined) gave BJeLR viability 1, PrP 5UTR inh -18, Sa ugtP lethal -1, Mtb hypoxia inh 14, Bead autofluor 2404, Sa RN4220 lethal -11 and Mtb hypoxia inh growth 4.
Cc1oc2c(CN3CCCC3)c(O)ccc2c(=O)c1-c1ccc(Cl)cc1 was read as BJeLR viability -2, PrP 5UTR inh -9&-13 and Bead autofluor 2806.
`NC(=O)c1c(NC(=O)c2cc3ccccc3o2)sc2c1CCC2` gave BJeLR viability 5, PrP 5UTR inh -28, Sa ugtP lethal 1, Bead autofluor 2764 and Sa RN4220 lethal 4.6.
Screening O=C1c2ccccc2C(=O)N1CC#CCN1CCN(C2CCCCC2)CC1 returned BJeLR viability 0, PrP 5UTR inh -9, Sa ugtP lethal 0, Bead autofluor 3806 and Sa RN4220 lethal 3.1.
`CCCCn1nnnc1NCc1cccnc1` gave BJeLR viability -8, PrP 5UTR inh -5, Sa ugtP lethal 8, Bead autofluor 2225 and Sa RN4220 lethal 4.6.

6 structures out of the list, ordered by molecular weight, smallest number first:
For COC(=O)CCC(C)=NNc1ccc([N+](=O)[O-])cc1[N+](=O)[O-] the results were Sa ugtP lethal 1, Mtb hypoxia inh 4, Sa RN4220 lethal 5.8 and Mtb hypoxia inh growth 7.
`CCC(Oc1ccccc1)C(=O)N1CCN(c2ccccn2)CC1` (centres undefined) gave BJeLR viability 1, PrP 5UTR inh -18, Sa ugtP lethal -1, Mtb hypoxia inh 14, Bead autofluor 2404, Sa RN4220 lethal -11 and Mtb hypoxia inh growth 4.
Cc1ccc(S(=O)(=O)NCC(=O)Nc2ccc3c(c2)OCO3)cc1 was read as BJeLR viability 0, PrP 5UTR inh -23, Sa ugtP lethal 3, Mtb hypoxia inh -2, Bead autofluor 3454, Sa RN4220 lethal 3.8 and Mtb hypoxia inh growth 9.
Screening COc1ccc(C2C(C#N)=C(C)NC3=C2C(=O)CC(C)(C)C3)c(OC)c1 (centres undefined) returned BJeLR viability -3, PrP 5UTR inh -19, Sa ugtP lethal -4, Mtb hypoxia inh 13, Bead autofluor 3289, Sa RN4220 lethal -6.9 and Mtb hypoxia inh growth 14.
Screening CCOC(=O)CCc1c(C)c2ccc(OCc3nn[nH]n3)c(C)c2oc1=O returned BJeLR viability 6, PrP 5UTR inh 2, Sa ugtP lethal 17, Mtb hypoxia inh 14, Bead autofluor 3304, Sa RN4220 lethal 6.0 and Mtb hypoxia inh growth 17.
For COc1cc(NC(=O)Cc2ccc(S(=O)(=O)N3CCOCC3)s2)c(OC)cc1Cl the results were BJeLR viability 3, PrP 5UTR inh -19, Sa ugtP lethal 2, Mtb hypoxia inh -10, Sa RN4220 lethal -1.9 and Mtb hypoxia inh growth -10.

Further structures.
For COC(=O)C1=CC(C(=O)OC)C2C3=C(C(=O)[C@]2(CC(C)C)NC(=O)c2ccccc2)C(C)n2c(=O)n(-c4ccccc4)c(=O)n2C3C1 (some centres undefined) the results were Sa ugtP lethal 4, Mtb hypoxia inh 10, Sa RN4220 lethal 4.5 and Mtb hypoxia inh growth 11.
Screening O=Cc1cn(Cc2ccccc2F)c2ccccc12 returned BJeLR viability 0, PrP 5UTR inh 4, Sa ugtP lethal 3, Mtb hypoxia inh 9, Bead autofluor 4598, Sa RN4220 lethal 3.0 and Mtb hypoxia inh growth 4.
Screening COc1ccc(N2C=C3C(=O)C(C)(OC(=O)CCc4ccccc4)C(=O)C=C3C=C2c2ccc(C#N)cc2)cc1 (centres undefined) returned BJeLR viability 4, PrP 5UTR inh -14, Sa ugtP lethal 2, Mtb hypoxia inh 20, Bead autofluor 3240, Sa RN4220 lethal 6.3 and Mtb hypoxia inh growth 8.
COc1cc(OC)cc(C(=O)N(Cc2nc(-c3cccc(C)c3)no2)C(C)C)c1 was read as BJeLR viability 1, PrP 5UTR inh -8, Sa ugtP lethal -3, Bead autofluor 2631 and Sa RN4220 lethal 0.5.
For CCn1cc(CN2CCC(C(=O)Nc3ccc(Oc4cccnc4)cc3)CC2)c(C)n1 the results were BJeLR viability 8, PrP 5UTR inh -25, Sa ugtP lethal -9, Mtb hypoxia inh -4, Bead autofluor 5749, Sa RN4220 lethal -5.7 and Mtb hypoxia inh growth -1.
Screening CCOC(=O)C1C2COc3cc(OC)ccc3C2N2C(=O)c3cc(F)ccc3NC(=O)[C@@]12C (some centres undefined) returned Sa ugtP lethal -3, Mtb hypoxia inh -3, Sa RN4220 lethal -0.8 and Mtb hypoxia inh growth 8.
`O=C(NC(=S)Nc1cccc(Cl)c1Cl)C1CC1` gave BJeLR viability 3, PrP 5UTR inh -21, Sa ugtP lethal 13, Mtb hypoxia inh 13, Bead autofluor 5949, Sa RN4220 lethal -3.5 and Mtb hypoxia inh growth 13.
Screening Cc1nc(C(=O)N2CCOCC2)sc1C1(C)CC(c2ccccc2)=NO1 (centres undefined) returned BJeLR viability -8, PrP 5UTR inh -6, Sa ugtP lethal 4, Mtb hypoxia inh 6, Bead autofluor 3154, Sa RN4220 lethal 6.9 and Mtb hypoxia inh growth -2.
For COc1ccccc1C(=O)N1CCCC(c2nc(-c3cc(OC)c(OC)c(OC)c3)no2)C1 (centres undefined) the results were BJeLR viability -8, PrP 5UTR inh -28, Sa ugtP lethal 3, Mtb hypoxia inh 1, Bead autofluor 9823, Sa RN4220 lethal 1.5 and Mtb hypoxia inh growth 5.
`CC(C)(C)OC(=O)N/N=C\c1ccc(OC(=O)c2ccco2)cc1` gave BJeLR viability 8, PrP 5UTR inh -57 and Bead autofluor 4598.
For CC(=O)Nc1ccc(-c2nc3ccccc3c(=O)o2)cc1 the results were BJeLR viability -2, PrP 5UTR inh -18, Sa ugtP lethal 7, Mtb hypoxia inh 3, Bead autofluor 3711, Sa RN4220 lethal 3.7 and Mtb hypoxia inh growth 1.
`CCn1c(Cc2ccccc2)nnc1SCC(=O)Nc1ccc(OC)cc1` gave BJeLR viability 5, PrP 5UTR inh 8, Sa ugtP lethal 9, Bead autofluor 2695 and Sa RN4220 lethal -0.3.

Compound activity as filed in PubChem.

Compounds were not picked by outcome; about 4% have a hit in one of these screens.
